# Bfl-1 A1 inh – inhibitors of the anti-apoptotic protein A1, read as caspase activation; caspase activation, % (test concentration not listed); AID 2462; actives 0.066% (n = 330,000); MEF A1-2A-BIM cells, Caspase-Glo 3/7 luminescence, 3 h; percent of clofoctol response, vehicle zero;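 active = over half of replicate activation scores above 10%, or exactly half above 10 with the replicate mean above 10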;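 note: wells of about 30 µL received 50 nL stock; many hits fall short of the cut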
# Beta apoptosis – beta cell apoptosis inhibition; actives 0.8% (n = 300,000); AID 435005; protection from apoptosis, % (test concentration not listed); INS-1E cytokine-induced death, ATP luminescence, 48 h; percent of positive-control rescue, neutral wells zero;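 active = all replicates at 75% or more, or half of them and the mean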;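 note: 0% = cytokine-treated negative control wells and 100% = positive control rescue; higher means more ATP so stronger rescue from cytokine killing; wells of about 40 µL received 100 nL stock; the first replicate is given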
# AF4-AF9 inh – inhibitors of human MLL-AF4/AF9 interaction; AlphaScreen, biotin-AF4 peptide binding to FLAG-AF9; inhibition, % at 10 µM; actives 0.47% (n = 350,000);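 active = every replicate reaching a set inhibition limit, whatever the replicate mean, cut at about 25% in these data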;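 note: 0% = plate neutral control median and 100% = total signal loss; the record names both 10 and 1 µM as test concentration; the first replicate is given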
# Target sequence (P42568 whole entry, looked up): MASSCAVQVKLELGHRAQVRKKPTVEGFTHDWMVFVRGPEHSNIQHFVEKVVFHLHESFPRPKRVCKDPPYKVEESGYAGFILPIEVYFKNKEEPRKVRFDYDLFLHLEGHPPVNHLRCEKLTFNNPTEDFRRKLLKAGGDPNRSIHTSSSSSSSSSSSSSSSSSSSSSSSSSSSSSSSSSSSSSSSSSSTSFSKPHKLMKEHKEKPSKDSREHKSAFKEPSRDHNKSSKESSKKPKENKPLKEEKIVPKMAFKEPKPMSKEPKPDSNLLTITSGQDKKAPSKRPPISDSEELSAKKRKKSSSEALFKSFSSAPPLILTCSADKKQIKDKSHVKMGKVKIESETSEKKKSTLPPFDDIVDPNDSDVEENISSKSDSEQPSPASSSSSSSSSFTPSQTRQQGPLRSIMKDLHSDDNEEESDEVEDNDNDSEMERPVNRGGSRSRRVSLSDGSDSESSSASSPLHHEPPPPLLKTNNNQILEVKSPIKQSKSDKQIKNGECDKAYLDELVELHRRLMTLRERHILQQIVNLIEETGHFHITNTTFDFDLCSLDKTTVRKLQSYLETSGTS
# E coli growth – E. coli growth inhibition; actives 0.21% (n = 330,000); OD600 absorbance (concentration not given with the values); Escherichia coli growth, OD600, 23 h; stronger effect = lower value;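 active = OD600 absorbance below the run mean of sample wells minus 3.6 SD, in any replicate, cut at about 0.56 in these data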;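 note: stock transfer was 300 nL into about 60 µL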
# FGF22 binding – FGF22 (human) thermal shift binding; recombinant FGF22 thermal shift, SYPRO orange fluorescence; percent of sucrose octasulfate shift, DMSO zero; Q9HCT0; calls only at 9.99 µM; actives 1.5% (n = 340,000);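 active = melting point raised past a set limit in the mean and every replicate; three in four hits are not shown here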
# Target sequence (Q9HCT0 whole entry, looked up): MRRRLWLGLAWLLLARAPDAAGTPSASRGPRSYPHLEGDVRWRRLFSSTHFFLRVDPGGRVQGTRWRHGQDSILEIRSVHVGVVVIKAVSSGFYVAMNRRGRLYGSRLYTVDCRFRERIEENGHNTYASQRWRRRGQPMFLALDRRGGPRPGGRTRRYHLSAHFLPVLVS
# UCH37 DUB inh – human UCH37 deubiquitinating enzyme inhibition. purified proteasome/UCH37, Ub-AMC cleavage fluorescence. inhibition, % (test concentration not listed). actives 0.33% (n = 330,000);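 active = mean of two replicates above 20%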;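 note: 0% = compound-free wells with enzyme and 100% = wells lacking proteasome; stock transfer was 100 nL into about 20 µL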
# Target sequence (Q9Y5K5 whole entry, looked up): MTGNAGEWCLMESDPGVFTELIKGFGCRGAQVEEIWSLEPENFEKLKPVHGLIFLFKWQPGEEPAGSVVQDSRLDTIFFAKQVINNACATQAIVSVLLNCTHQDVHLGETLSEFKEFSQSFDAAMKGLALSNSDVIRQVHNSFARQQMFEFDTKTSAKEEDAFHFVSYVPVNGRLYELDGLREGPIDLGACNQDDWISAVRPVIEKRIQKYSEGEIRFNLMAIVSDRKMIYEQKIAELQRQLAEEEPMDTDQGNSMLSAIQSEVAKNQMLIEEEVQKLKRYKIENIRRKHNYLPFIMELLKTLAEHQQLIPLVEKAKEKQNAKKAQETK
#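 assay system = human UCH37 enzyme supplied as purified proteasome complex | amount = proteasome at 0.15 nM in the dispensed enzyme solution | schedule = 30 min compound-proteasome preincubation then 25 min substrate reaction, room temperature | measured by = fluorescence, ex 355 nm, em 460 nm | benchmarks = no-proteasome wells (full inhibition) and compound-free wells (no inhibition)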
# Ecoli rRNA inh – inhibits bacterial ribosomal RNA function over humanized ribosomes | E. coli WT GFP vs humanized-ribosome RFP mutants, fluorescence, 24 h; stronger effect = lower value; DMSO median 0, no signal -100 | GFP signal change (wild-type ribosome), % (test concentration not listed) | actives 1.6% (n = 350,000) | AID 720706;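 active = significant combined selectivity score with lowered wild-type GFP, culture density cut under 30%, mutant RFP and density less affected; inactive = any of these conditions unmet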; note: one replicate is shown; some compounds called inactive have numbers as strong as hits
# T cruzi repl – T. cruzi replication inhibition. actives 1.4% (n = 300,000). inhibition, % (concentration not given with the values). AID 1885. T. cruzi beta-gal in NIH3T3, luminescence, 90 h;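 active = mean inhibition across valid replicates above about 55%, limit read from the data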;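 note: signal also drops with host cell toxicity which is not excluded here; 0% = plate median of DMSO wells and 100% = zero luminescence signal; higher percent means less beta-gal luminescence so fewer parasites; stock transfer was 50 nL into about 50 µL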
# Ecoli rRNA inh OD600 – second read-out of Ecoli rRNA inh, no call of its own (marks repeat the call); OD600 change, %; measured here: OD600 growth;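 optical density of the mix in the first replicate; 0 = DMSO median and -100 = no signal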
# Ecoli rRNA inh RFP – second read-out of Ecoli rRNA inh, no call of its own (marks repeat the call); RFP signal change, %; measured here: RFP humanized mutant strains;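 first replicate; 0 = DMSO median and -100 = no signal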
# The depositor's hits bear a star; i = inactive; nt = no result given.
SMILES,Bfl-1 A1 inh,Beta apoptosis,AF4-AF9 inh,E coli growth,FGF22 binding,UCH37 DUB inh,Ecoli rRNA inh,Ecoli rRNA inh OD600,Ecoli rRNA inh RFP,T cruzi repl
Cc1ccc(-c2nsc(SCC(=O)NCC3CCCO3)n2)cc1 (centres undefined),2.1,-5.4,-3.4,0.681,i,-0.1,-16.8,-20.5,-1.5,1.1
N#C/C(=C\Nc1ccccc1O)c1nc2ccccc2o1,-0.9,7.6,0.9,0.635,i,3.7,-52.2,-72.8,-26.9,1.9
CCOC(=O)C(CC(C)C)CP(=O)(O)CNC(=O)OCc1ccccc1 (centres undefined),1.3,-5.3,nt,0.749,nt,-3.1,nt,nt,nt,1.8
CC(C)C1CC(CCNCc2ccc3c(c2)OCO3)(c2ccccc2)CCO1 (centres undefined),0.5,0.1,5.1,0.663,i,4.8,-24.4*,-16.7*,-1.1*,29.6
CC(C)Sc1cc(N2CCCC2)nc(-c2ccccc2Cl)n1,0.5,1.4,nt,0.678,nt,0.0,nt,nt,nt,19.7
C=CCN1C(=O)c2ccc(C(=O)OCC(=O)Nc3ccc(S(N)(=O)=O)cc3)cc2C1=O,-0.9,0.9,-4.4,0.702,i,0.2,11.4,11.0,-0.3,-3.5
COc1ccc(CCNC(=O)c2cc3c(=O)n4ccccc4nc3n(CC3CCCO3)c2=N)cc1 (centres undefined),nt,nt,-1.9,0.696,i,-47.9,5.0,-4.9,8.0,nt
COc1ccc(CN2CCN(C(=O)c3cc(-c4cccnc4)nc4ccc(Cl)cc34)CC2)c(OC)c1OC,0.3,6.7,7.9,0.717,i,2.5,-22.8*,-16.2*,9.3*,-0.7
COc1ccc(C(=O)c2sc(Nc3ccccc3F)nc2N)cc1,-2.4,-5.3,2.5,0.648,i,-5.1,-33.7,-46.7,-1.2,-3.4
O=C(Nc1cccc(-c2cccc(Cl)c2)c1)C1CCN(Cc2ccon2)CC1,-0.9,-6.2,3.6,0.61,i,0.0,-68.0,-81.1,-18.8,18.4
CC(C)C[C@H](NC(=O)c1nc[nH]c1C(=O)NCCCCCNC(=O)OC(C)(C)C)C(=O)OCc1ccccc1,-0.9,-7.8,1.7,nt,i,5.0,6.0,-12.6,0.2,8.9
COc1ccc(C2CC(c3ccc(OC)cc3OC(C)=O)=NN2C(=O)c2ccccc2)cc1 (centres undefined),0.5,15.7,5.7,0.686,i,0.0,-7.7,-2.3,4.3,21.7

# Part of the list above, limited to Ecoli rRNA inh and Ecoli rRNA inh OD600.
SMILES,Ecoli rRNA inh,Ecoli rRNA inh OD600
COc1ccc(C2CC(c3ccc(OC)cc3OC(C)=O)=NN2C(=O)c2ccccc2)cc1 (centres undefined),-7.7,-2.3
COc1ccc(CCNC(=O)c2cc3c(=O)n4ccccc4nc3n(CC3CCCO3)c2=N)cc1 (centres undefined),5.0,-4.9

# The results go on.
SMILES,Bfl-1 A1 inh,Beta apoptosis,AF4-AF9 inh,E coli growth,FGF22 binding,UCH37 DUB inh,Ecoli rRNA inh,Ecoli rRNA inh OD600,Ecoli rRNA inh RFP,T cruzi repl
Cc1ccsc1C(=O)OCC(=O)Nc1c(Cl)cccc1C(F)(F)F,0.2,-1.0,nt,0.67,nt,2.2,nt,nt,nt,-15.2
O=C(NNC(=O)c1ccc(Cl)cc1Cl)c1ccc2ccccc2c1,nt,nt,7.1,0.686,i,1.3,2.4,5.2,-0.1,nt
CCc1ccc(-c2nc(CN3CCC(C(=O)NCc4ccc(F)cc4)CC3)c(C)o2)cc1,-0.1,10.9,nt,0.729,nt,-0.7,nt,nt,nt,6.2
C=CCn1c(SCC(=O)Nc2c(C)n(C)n(-c3ccccc3)c2=O)nc2scc(-c3ccccc3)c2c1=O,-0.2,2.4,nt,0.666,nt,2.8,nt,nt,nt,11.8
O=C1C[C@H]2[C@H](CO)[C@@H](OC(=O)c3ccc(-c4ccccc4)cc3)C[C@H]2O1,-1.1,-5.9,-0.8,nt,i,nt,-28.4,-37.3,-6.8,-3.1
CN(C)S(=O)(=O)c1ccc(C(=O)NNc2nc(-c3ccccc3)c3cc(Br)ccc3n2)cc1,0.3,0.6,nt,0.672,nt,1.2,nt,nt,nt,17.9
Cc1cc(NC(=O)CSc2ncc(C(=O)O)n2-c2ccc(F)cc2)no1,0.5,-6.9,-1.5,0.725,i,1.9,9.6,-0.2,0.3,nt
COc1ccccc1CNC(=O)C(C)Sc1ccsc1[N+](=O)[O-] (centres undefined),-0.1,-1.7,3.6,0.676,i,3.4,3.8,10.3,7.8,7.8
COc1cccc(CNC(=O)C2CCN(S(=O)(=O)N3CCCC3)CC2)c1,0.9,-2.4,nt,0.698,nt,2.7,nt,nt,nt,-8.0
O=C1SC(Cc2ccccc2)C(=O)N1c1ccccc1 (centres undefined),-1.4,nt,1.6,0.664,i,0.1,7.9,12.7,0.1,-11.9
COc1ccc(CC(NC(C)=O)C(=O)NC2CCN(c3nnnn3-c3ccccc3)CC2)cc1OC (centres undefined),-0.6,-3.3,nt,0.706,nt,4.9,nt,nt,nt,-5.1
O=C1CN(C(=O)COC(=O)CNC(=O)c2ccc(Br)o2)c2ccccc2N1,-0.2,-2.6,-1.7,0.671,i,3.1,3.3,9.7,-2.3,-7.9

# Complete entries, looked up by structure. Order of values: Bfl-1 A1 inh, Beta apoptosis, AF4-AF9 inh, E coli growth, FGF22 binding, UCH37 DUB inh, Ecoli rRNA inh, Ecoli rRNA inh OD600, Ecoli rRNA inh RFP, T cruzi repl
# CCc1ccc(-c2nc(CN3CCC(C(=O)NCc4ccc(F)cc4)CC3)c(C)o2)cc1 is entered as -0.1, 10.9, nt, 0.729, nt, -0.7, nt, nt, nt, 6.2
# O=C(NNC(=O)c1ccc(Cl)cc1Cl)c1ccc2ccccc2c1 is entered as nt, nt, 7.1, 0.686, i, 1.3, 2.4, 5.2, -0.1, nt
# O=C1C[C@H]2[C@H](CO)[C@@H](OC(=O)c3ccc(-c4ccccc4)cc3)C[C@H]2O1 is entered as -1.1, -5.9, -0.8, nt, i, nt, -28.4, -37.3, -6.8, -3.1
# Cc1cc(NC(=O)CSc2ncc(C(=O)O)n2-c2ccc(F)cc2)no1 is entered as 0.5, -6.9, -1.5, 0.725, i, 1.9, 9.6, -0.2, 0.3, nt
# O=C1CN(C(=O)COC(=O)CNC(=O)c2ccc(Br)o2)c2ccccc2N1 is entered as -0.2, -2.6, -1.7, 0.671, i, 3.1, 3.3, 9.7, -2.3, -7.9

# Other compounds follow:
SMILES,Bfl-1 A1 inh,Beta apoptosis,AF4-AF9 inh,E coli growth,FGF22 binding,UCH37 DUB inh,Ecoli rRNA inh,Ecoli rRNA inh OD600,Ecoli rRNA inh RFP,T cruzi repl
COc1ccc(-c2c(-c3ccc(OCC(=O)NN)cc3O)n[nH]c2C)cc1OC,0.0,-14.7,-2.3,0.707,i,-0.5,-7.0,-1.0,-4.9,-8.2
CCN(C(=O)CSc1nnnn1-c1ccccc1)c1c(N)n(Cc2ccccc2)c(=O)[nH]c1=O,2.4,-5.6,nt,0.703,nt,3.8,nt,nt,nt,-15.8
O=S(=O)(Nc1nccs1)c1ccc(Nc2nnc(-c3ccccc3)c3ccccc23)cc1,-0.1,2.3,nt,nt,nt,2.7,nt,nt,nt,-4.9
C=C1CCN([C@@H](Cc2ccccc2)C(=O)O)S(=O)(=O)c2ccccc21,-0.5,-2.4,nt,nt,i,0.7,12.7,8.8,-3.1,-25.3
COC(/C=C/Nc1ccc(C)cc1)=C(C#N)C#N,0.7,nt,-1.7,0.697,i,1.3,6.6,5.2,-1.1,-15.2
NC(=O)COC(=O)c1cccnc1Nc1ccccc1F,-1.0,-10.6,-1.7,0.719,i,7.3,7.5,4.1,13.2,-11.3
COc1ccc(F)c(CN(C)CC2CCCN(CCc3ccc(F)cc3)C2)c1 (centres undefined),0.9,nt,3.8,0.618,i,2.9,-3.8,-10.5,-7.1,51.2
CC[C@@H](C)C(C(=O)N1CCN(C(=O)OC(C)(C)C)CC1)n1cc(-c2cn([C@@H](C)C(=O)N3CCN(C(=O)OC(C)(C)C)CC3)nn2)nn1 (some centres undefined),0.2,-2.4,-10.2,nt,i,1.3,nt,nt,nt,-4.4
CCn1ncc(CN2CCCC(C(=O)Nc3cccc(-c4cc5ccccc5[nH]4)c3)C2)c1C (centres undefined),-0.6,-1.8,17.3,0.682,i,-8.6,-53.9,-81.3,-19.2,42.3
COc1ccc(S(=O)(=O)N2CCC3(CC2)OCCN3S(=O)(=O)c2c(C)cc(C)cc2C)cc1,0.1,nt,1.1,0.727,i,3.3,1.4,-3.2,0.6,42.8
COC(=O)CNc1n[nH]c(=S)[nH]c1=O,0.3,-0.7,nt,0.712,nt,nt,nt,nt,nt,-8.9
O=C(CN1CCN(CC(=O)Nc2ccccc2Cl)CC1)NCC1(N2CCOCC2)CCCCC1,nt,nt,-0.9,0.691,i,5.2,4.8,3.8,4.3,nt
COc1ccc(CCc2cc(OC)cc(=O)o2)cc1,1.2,nt,-0.5,0.709,i,0.7,-0.8,12.1,-11.4,-12.6
CN(C)c1nc(NC(C)(C)C)nc(NC(C)(C)C)n1,-1.1,36.2,1.2,0.635,i,0.0,-2.3,2.9,-0.8,59.5*
CCOC1=NN(c2ccc(Cl)cc2)C(=O)/C1=C\N(C)C,0.7,-6.4,-10.9,0.676,i,2.6,8.4,5.2,-1.5,-3.0
CCOP(=O)(OCC)C(NC(=O)C(F)(F)F)c1ccccc1 (centres undefined),0.9,-7.1,-2.5,0.678,i,1.8,21.2,20.6,1.7,-8.0
COc1cc(/C=C2/SC(=S)N(CC(=O)NC(C)(C)C)C2=O)cc(OC)c1OC,1.2,-6.0,nt,0.646,nt,5.2,nt,nt,nt,5.6
COc1cc(/C=C2\CC/C(=C\c3cc(OC)c(O)c(OC)c3)C2=O)cc(OC)c1O,-0.3,88.9*,14.4,0.703,i,9.8,nt,nt,nt,nt
O=C1[C@@H](Oc2ccccc2)[C@@H](c2ccncc2)N1c1ccccc1,nt,nt,-2.8,0.726,i,1.4,10.0,7.6,1.5,nt
O=C(O)c1cccc(Cn2c(Cl)c(/C=N/NC(=O)c3ccccc3O)sc2=O)c1,1.4,-4.9,5.7,nt,i,nt,2.8,7.5,3.4,-4.9
Cn1cc([N+](=O)[O-])c(C(=O)Nc2cnn(Cc3ccc(F)cc3)c2)n1,0.2,-21.4,nt,0.609,nt,2.3,nt,nt,nt,2.5
O=C(Cc1csc(-c2ccc(Cl)cc2)n1)Nc1cccc(S(=O)(=O)NC2=NCCC2)c1,-0.5,-3.3,1.5,0.646,i,5.0,-14.9,-36.2,-8.7,nt
CC(C)(C)c1ccc(C(=O)NCC(=O)N2CCC3(CC2)NCCc2[nH]cnc23)cc1,0.4,-3.9,3.4,0.689,i,1.0,8.3,-4.5,-0.1,8.2
CSc1ccccc1NC(=O)C1CCN(S(C)(=O)=O)CC1,0.1,-1.7,-3.4,0.644,i,0.0,8.6,3.6,2.8,-10.5
CCOc1cc(C(=O)N(C)c2ccccc2)cc(OCC)c1OCC,0.6,1.3,nt,0.703,nt,1.0,nt,nt,nt,19.5

# Screening data as filed in PubChem BioAssay.

# This is a subset; count on the stated rates, not on these rows.
